High-throughput results as filed in PubChem.
Measles inh = inhibitors of measles virus growth in cells, primary screen, measles RdRp inhibitor project, cell-based, single point, HTS; z-score (concentration not given with the values); 33,000 compounds, 0.1% hits; infected Vero cells, GFP fluorescence, 64 h; active compounds read low;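 active = z-score under -3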;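 also: score is relative to mean and SD of the compound wells of a plate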
* = called active by the depositor.

SMILES	Measles inh
COc1ccc(S(=O)(=O)Nc2ccc(O)c(-c3c(O)ccc4ccccc34)c2)cc1	0.34
COc1ccccc1N1CCN(CC(O)COc2ccc(C(C)C)c(C)c2)CC1 (stereo unspecified)	-1
CCOC(=O)C(=O)Nc1ccc2ccccc2c1	0.03
CC(=O)Nc1nc(NC(C)=O)n(-c2ccccc2)n1	0.81
Cc1ncc(CO)c2cc(C(=O)Nc3ccccc3F)c(=Nc3ccc4c(c3)OCO4)oc12	-0.15
NS(=O)(=O)c1ccc(N=Cc2ccc3c(c2)OCO3)cc1	2
C=CCN(C(=O)CN(C)S(=O)(=O)c1cccc2nsnc12)c1ccccc1	-0.07
N#Cc1sc2nc3c(cc2c1N)CCCC3	1.2
Nc1c(C(=O)N(c2ccccc2)c2ccccc2)sc2[nH]c(=O)c(C(=O)O)cc12	-0.55
O=C(CSc1nccn1-c1ccc(F)cc1)Nc1nc2ccccc2s1	0.75
Ic1ccc(Nc2nc(-c3ccc(I)cc3)cs2)cc1	-0.57
Fc1ccccc1CN1CCN(CC2CC=CCC2)CC1 (stereo unspecified)	0.34
CC(C)c1ccc(S(=O)(=O)Nc2ccc3oc(=O)sc3c2)cc1	-0.5
CC1CCc2c(sc(NC(=O)CSc3nncn3C)c2C#N)C1 (stereo unspecified)	-0.39
COc1ccccc1CN1CC(C(=O)O)CC1=O (stereo unspecified)	-0.11
COc1cc(CN2CCN(Cc3ccc(SC)cc3)CC2)cc2c1OCO2	-0.24
O=C1CC(N2CCN(Cc3ccc4c(c3)OCO4)CC2)C(=O)N1CC(c1ccccc1)c1ccccc1 (stereo unspecified)	0.46
O=C(NCCN1CCCC1)C1CCC(CNS(=O)(=O)c2ccccc2)CC1 (stereo unspecified)	-0.06
COc1ccccc1N1CCN(C(=O)c2cn(C)c(=O)c3c2c2ccccc2n3C)CC1	0
Cc1cccc(NC(c2ccc(F)cc2)c2ccc3cccnc3c2O)n1 (stereo unspecified)	0.52
CC(C)N(C)C1CCN(S(=O)(=O)c2ccc([N+](=O)[O-])cc2)CC1	0.73
Cc1ccc(C2CC(C(F)(F)F)n3nc(C(=O)NCC(C)C)c(Cl)c3N2)cc1 (stereo unspecified)	0.21
C=CCOC(=O)C1=C(C)Nc2[nH]c(=O)[nH]c(=O)c2C1c1ccc(F)cc1 (stereo unspecified)	-0.12
Cc1c(Cl)cccc1Nc1nc(-c2cccs2)cs1	2
CCOc1cc2[nH]c(=S)n(CCC(=O)N3CCN(c4ccccn4)CC3)c(=O)c2cc1OCC	-0.45

More results:
SMILES	Measles inh
O=C(Nc1ccc2nsnc2c1)c1cccs1	-0.77
COc1ccc(-c2coc3c(C)c4oc(=O)c5ccccc5c4cc23)cc1	-0.6
CCC(C)(C(=O)NC1CCCCC1)N(C)C(=O)Cc1cccs1 (stereo unspecified)	-0.67
CC(C)c1ccccc1NC(=O)c1ccc(-c2ccccc2)cc1	-1.4
O=C(CN1C(=O)COc2ccc(S(=O)(=O)N3CCCC3)cc21)NC1CCCCCCC1	-1.3
CCCCN(C)C(=O)c1ccc2c(c1)N(Cc1cccc(F)c1)C(=O)c1ccccc1S2	1
CCOc1ccccc1NC(=O)c1cc([N+](=O)[O-])ccc1N1CCCCC1	3.2
Cc1ccc(S(=O)(=O)NCC2CCC(C(=O)NCc3cccnc3)CC2)cc1 (stereo unspecified)	0.09
CCOC(=O)c1c(NC(=O)COc2ccccc2)sc2c1CC(C)(C)NC2(C)C	-0.88
O=C(COc1ccccc1F)N1CCc2ccccc2C1	1.2
Cc1c(C(=O)Nc2ccc(Cl)cn2)sc2ncnc(N3CCCCC3C)c12 (stereo unspecified)	2.2
COC(=O)CNS(=O)(=O)c1ccc(C)cc1	-0.27
O=C(c1ccc(CS(=O)(=O)Cc2ccccc2F)o1)N1CCOCC1	-1
CCC(C)NC(=O)c1cc(-c2cccc(OC)c2)on1 (stereo unspecified)	-1.2
Cc1cc(C)c(S(=O)(=O)Nc2ccc(S(=O)(=O)Nc3ncccn3)cc2)c(C)c1	0.6
CCOC(=O)c1cc(NC(=O)c2ccc([N+](=O)[O-])cc2)cc(NC(=O)c2ccc([N+](=O)[O-])cc2)c1	0.59
CN(c1ccccc1)S(=O)(=O)c1ccc(C(=O)Nc2ccccc2-c2nc3ccccc3s2)cc1	-0.92
Cc1ccc(NC(=O)CNS(=O)(=O)c2ccc(Br)s2)cc1F	-0.75
O=[N+]([O-])c1cc(Cl)ccc1N1CCCNCC1	-0.11
Cc1cc(NC(=O)CCNS(=O)(=O)c2ccc(Br)s2)ccc1Br	-1.4
O=C(c1cccn2c(=O)c3ccc(Cl)cc3nc12)N1CCN(c2ccc(F)cc2)CC1	-0.41
Cc1ccn2c(NC(=O)c3ccc4ccccc4c3)c(-c3ccccc3)nc2c1	0.19
Cc1cc(Br)ccc1NC(=O)c1ccc(F)cc1	-0.72
CCc1cc2c(=O)c(-c3ccc(Cl)cc3)coc2cc1O	-0.24
COc1ccc(C2NC(=S)N(C)C(C)=C2C(=O)Nc2ccccc2)cc1 (stereo unspecified)	0.2

(more compounds)
SMILES	Measles inh
COC(=O)c1ccc2c(=O)n(CCCCCC(=O)N3CCc4ccccc4C3)c(=O)[nH]c2c1	0.45
Cc1cc(C)c2nc(SCc3ccccc3)nc(C)c2c1	-0.57
CCOC(=O)c1ccc(N2C(=O)C(=O)/C(=C(/O)c3ccc(OC)cc3)C2c2ccccc2)cc1 (stereo unspecified)	-0.69
COc1ccc(N2C(=O)CSC2c2ccc(C(C)C)cc2)cc1 (stereo unspecified)	-0.21
COc1ccc(Cl)cc1NC(=O)c1c(-c2ccccc2Cl)noc1C	1.2
COC(=O)c1cccc(Nc2cc(C)nc3c(OC)cccc23)c1	-1.3
Cc1ccc(OCC(=O)Nc2ccc(C(C)C)cc2)cc1C	-0.82
COC(=O)C1=C(C)NC(C)=C(C(=O)OC)C1c1cccc(O)c1	-0.52
COC(=O)C1=C(C)NC(C)=C(C(=O)OC)C1c1cn(-c2ccccc2)nc1-c1ccc(OC)cc1	-1.5
COc1ccc(C2C3=C(CC(C)(C)CC3=O)Nc3[nH]c(=S)[nH]c(=O)c32)cc1OC (stereo unspecified)	0.2
O=C(c1ccc(S(=O)(=O)N2CCCCC2)cc1)N1CCN=C1SCc1cccc(C(F)(F)F)c1	-0.12
O=C(O)c1cccc(NS(=O)(=O)c2cccc(S(=O)(=O)c3ccc(Cl)cc3)c2)c1	-0.21
O=C(Nc1nnc(-c2ccc3c(c2)OCO3)s1)c1ccc(Cl)cc1	0.48
O=C(C1=NN(c2ccccc2)C(=O)CC1)N1CCCCCC1	1.6
CCOc1ccc(-n2c(-c3ccc(Br)cc3)nc3c(cnn3-c3ccccc3)c2=O)cc1	1
COC(=O)CSc1nc2c(c(=O)[nH]c(=O)n2C)n1Cc1cccc(C)c1	-2.8
CCCCN1COc2c(c3c(C(C)=O)c(C)oc3c3ccccc23)C1	0.27
CCOc1ccc2nc(SCCC(=O)Nc3ccc(OC)cc3)sc2c1	0.34
CCCOc1ccc(NC(=O)C2CC(=O)N(C)C(=Nc3ccc(OC)cc3)S2)cc1 (stereo unspecified)	-0.38
COc1cc2c(cc1OC)C(COc1ccc([N+](=O)[O-])cc1)N(C(=O)CCCCl)CC2 (stereo unspecified)	-0.25
CN(c1ccc(Br)cc1)S(=O)(=O)c1ccc2c(c1)CCN2C(=O)C1CC1	-1.1
CCN(CC)c1nc2c(c(=O)[nH]c(=O)n2C)n1Cc1ccccc1	-1.3
COc1ccc(NC(=O)c2cccc(N3C(=O)C4C5C=CC(C5)C4C3=O)c2)c(OC)c1 (stereo unspecified)	-0.97
COc1ccc(C2=NN(C(=O)c3cc(OC)c(OC)c(OC)c3)C(c3ccc(C)cc3)C2)cc1OC (stereo unspecified)	-0.19
CCOc1ccccc1Nc1cc(C)nc2ccc(Cl)cc12	-0.13

Going on with the list.
SMILES	Measles inh
O=C1C2C3C=CC(C3=C(c3ccccc3)c3ccccc3)C2C(=O)N1c1ccc(O)cc1 (stereo unspecified)	-0.4
COc1ccc(C(=O)Nc2nnc(C(C)C)s2)cc1OC	0.67
Cc1ccc(NC(=O)c2c(C)nn(-c3ccccc3)c2Cl)cc1C	0
CC(C)C(NC(=O)C12CC3(C)CC(C)(CC(C)(C3)C1)C2)C(=O)O (stereo unspecified)	-0.09
Cc1ccc([N+](=O)[O-])cc1-n1c(=O)c2cc3c(=O)n(-c4cc([N+](=O)[O-])ccc4C)c(=O)c3cc2c1=O	-0.69
c1ccc(C(Nc2ccccn2)(c2ccccc2)c2ccccc2)cc1	-1.3
Cc1ccc(C)c(NC(=O)C(Cc2ccc([N+](=O)[O-])cc2)N2C(=O)c3ccccc3C2=O)c1 (stereo unspecified)	-0.52
Cc1cccc(Nc2nc(C)[nH]c2[N+](=O)[O-])c1	0.33
CCC(=O)Nc1c2c(nn1-c1cccc(C)c1C)CS(=O)(=O)C2	2.6
CC(C)(C)NC(=O)C1CCCN1S(=O)(=O)c1cccs1 (stereo unspecified)	-1.1
Cc1ccc2oc(-c3cccc(NC(=O)c4cc([N+](=O)[O-])ccc4Cl)c3)nc2c1	1.6
CC1CCCN(S(=O)(=O)c2ccc3c(c2)CCN3C(=O)C2CC2)C1 (stereo unspecified)	-0.43
COC(=O)c1ccc(NCCC(=O)O)c([N+](=O)[O-])c1	-0.42
NS(=O)(=O)c1ccc(Nc2nc(-c3ccc(O)cc3O)cs2)cc1	1.5
O=C(Nc1nc(-c2nc3ccccc3s2)cs1)c1ccc(Oc2ccccc2)cc1	2
CC1CCCCN1CCCNC(=O)C1CC(=O)N(C2CCCCC2)C1 (stereo unspecified)	1.3
Cc1ccc(C2=NN(CCC(=O)NCC3CCCO3)C(=O)CC2)cc1 (stereo unspecified)	-0.74
O=c1oc2ccccc2c2c1C(c1cccs1)Nc1ccc3ccccc3c1-2 (stereo unspecified)	-0.23
Oc1ccc(-c2nc3ccc4ccccc4c3c3c2CCCC3)cc1O	-1.4
CCOC(=O)c1c(NC(=O)c2ccc(Cl)cc2)sc(C(=O)Nc2ccc3c(c2)OCO3)c1C	0.4
COc1ccc(N2C(=O)CCC2(C#N)c2ccc(OC)cc2)cc1 (stereo unspecified)	2.5
COc1cc(NC(=O)CCC(=O)O)nc(OC)n1	-0.87
COC(=O)c1ccc(NC(=O)C(C)Oc2ccc(Cl)cc2C)cc1 (stereo unspecified)	0.51
CC(=O)NS(=O)(=O)c1ccc2c(c1)C(=O)c1cc(S(=O)(=O)NC(C)=O)ccc1-2	0.78
CC1=C(C(=O)N2CCOCC2)C(c2ccc(C)cc2)n2c(nc3ccccc32)N1 (stereo unspecified)	2.1

(listing goes on)
SMILES	Measles inh
O=C1N=C(SCC(=O)N2CCCc3ccccc32)NC(=O)C1c1ccccc1 (stereo unspecified)	0.03
CCN(CC)CCNC(=O)c1cc(Nc2ccc(C)cc2C)nc2ccccc12	-0.74
COc1ccc(OC)c(NS(=O)(=O)c2cccc3cccnc23)c1	-0.42
COc1ccc2nc(SCc3ccc(F)cc3)[nH]c2c1	-0.48
O=C(NCCC1=CCCCC1)C1CCC(CNS(=O)(=O)c2ccccc2)CC1 (stereo unspecified)	-0.72
O=C1c2ccccc2C(=O)c2c(F)cccc21	-0.37
CSc1cccc(Nc2cc(C(=O)NCc3ccc(F)cc3)c3ccccc3n2)c1	-0.02
CC(=O)c1ccc2c(c1)C1C=CCC1C(c1ccccc1Cl)N2 (stereo unspecified)	1.2
COC(=O)c1sc(-c2ccccc2)cc1NC(=O)c1ccc(S(=O)(=O)N2CC(C)OC(C)C2)cc1 (stereo unspecified)	-0.45
Cc1cc(C(=O)Nc2ccc3c(c2)OCCO3)ccc1[N+](=O)[O-]	0.03
COc1ccc(Cl)cc1NC(=O)C1CCN(S(=O)(=O)c2ccccc2)CC1	0.77
COC(=O)c1c(NC(=O)COc2cc(C)c(Cl)c(C)c2)sc2c1CCC(C)C2 (stereo unspecified)	0.23
CC(C)Cc1ccc(S(=O)(=O)NC2CCCCC2)cc1	-2.1
CCOC(=O)c1c(NC(=O)c2ccc(F)cc2)sc(C(=O)Nc2cccc(C(F)(F)F)c2)c1C	-0.82
CC(=O)N(c1ccccc1)C1(C(=O)NC2CCCCC2)CCCCC1	-0.06
c1ccc2cc(Nc3ncnc4[nH]ncc34)ccc2c1	-0.26
COc1ccc(OCC2c3cc(OC)c(OC)cc3CCN2C(=O)c2ccccc2)cc1 (stereo unspecified)	-0.2
Cc1cccc(Cc2cnc(NC(=O)c3cccc([N+](=O)[O-])c3)s2)c1	-0.72
COc1ccc(-c2nn(C)c3sc(C(=O)N4CCCCC4)cc23)cc1OC	-1.7
Brc1ccc(C=NC2C3CC4CC(C3)CC2C4)cc1 (stereo unspecified)	2.4

A run of entries of the results above:
SMILES	Measles inh
COc1ccc(OC)c(NS(=O)(=O)c2cccc3cccnc23)c1	-0.42
COc1ccc2nc(SCc3ccc(F)cc3)[nH]c2c1	-0.48
O=C(NCCC1=CCCCC1)C1CCC(CNS(=O)(=O)c2ccccc2)CC1 (stereo unspecified)	-0.72
O=C1c2ccccc2C(=O)c2c(F)cccc21	-0.37
CSc1cccc(Nc2cc(C(=O)NCc3ccc(F)cc3)c3ccccc3n2)c1	-0.02
CC(=O)c1ccc2c(c1)C1C=CCC1C(c1ccccc1Cl)N2 (stereo unspecified)	1.2
COC(=O)c1sc(-c2ccccc2)cc1NC(=O)c1ccc(S(=O)(=O)N2CC(C)OC(C)C2)cc1 (stereo unspecified)	-0.45
Cc1cc(C(=O)Nc2ccc3c(c2)OCCO3)ccc1[N+](=O)[O-]	0.03
COc1ccc(Cl)cc1NC(=O)C1CCN(S(=O)(=O)c2ccccc2)CC1	0.77
COC(=O)c1c(NC(=O)COc2cc(C)c(Cl)c(C)c2)sc2c1CCC(C)C2 (stereo unspecified)	0.23
CC(C)Cc1ccc(S(=O)(=O)NC2CCCCC2)cc1	-2.1
CCOC(=O)c1c(NC(=O)c2ccc(F)cc2)sc(C(=O)Nc2cccc(C(F)(F)F)c2)c1C	-0.82
CC(=O)N(c1ccccc1)C1(C(=O)NC2CCCCC2)CCCCC1	-0.06
c1ccc2cc(Nc3ncnc4[nH]ncc34)ccc2c1	-0.26
COc1ccc(OCC2c3cc(OC)c(OC)cc3CCN2C(=O)c2ccccc2)cc1 (stereo unspecified)	-0.2
Cc1cccc(Cc2cnc(NC(=O)c3cccc([N+](=O)[O-])c3)s2)c1	-0.72
COc1ccc(-c2nn(C)c3sc(C(=O)N4CCCCC4)cc23)cc1OC	-1.7
Brc1ccc(C=NC2C3CC4CC(C3)CC2C4)cc1 (stereo unspecified)	2.4

These rows are one share of the data; count on the stated rates, not on these rows.
